gsp antag: antagonizes gsp, the McCune-Albright syndrome mutation; gsp-mutant cells, cAMP HTRF, 30 min; control for the full effect not named in the record; Potency, µM (series often up to 76.9 µM), for inactives: at the top dose activity change, negative = inhibition, usual class: inhibitors; actives 0.4% (n = 340,000); AID 624288; active = falling curve of any shape with a large fitted effect; inconclusive = falling curve, mostly with a smaller effect; inactive = flat or rising curve; cell line not stated here;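 also: intracellular cAMP measured with PDE inhibitor Ro 20-1724 present during compound exposure; potency is read from the fitted curve at half-maximal effect; % is scaled to controls: 0 for no effect and ±100 for the full control effect; nearly all actives have a fitted effect of over 65% in size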
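HTRF cAMP read-out (cAMP-d2 plus anti-cAMP antibody-K in lysis buffer, 30 min RT). Before lysis, cells are exposed to compounds with […] for 30 min at 37C in DPBS containing Ca/Mg, BSA and Tween 20.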
ClpP mod: qHTS Assay for Activators of ClpP; purified B. subtilis ClpP, FRET peptide cleavage, 20 min; Potency, µM (doses to about 57.5 µM), for the others: at the top dose activity change, negative = active; actives 1.9% (n = 340,000); active = well fitted falling curve with a large enough effect; inconclusive = small, poorly fitted or top-dose-only effect; inactive = no such curve, though single readings can be large or run the other way; also: potency is read from the fitted curve at half-maximal effect; the source files actives as falling curves though it sought activators and does not explain the sign; nearly all actives have a fitted effect of over 65% in size; many hits overshoot -100%
Target sequence (P80244 whole entry, looked up): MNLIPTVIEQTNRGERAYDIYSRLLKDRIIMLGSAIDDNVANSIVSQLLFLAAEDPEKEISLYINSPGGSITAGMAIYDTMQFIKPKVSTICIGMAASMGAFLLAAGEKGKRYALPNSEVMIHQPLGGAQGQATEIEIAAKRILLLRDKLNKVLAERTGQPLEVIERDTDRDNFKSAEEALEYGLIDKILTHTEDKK
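Buffer: 100 mM Tris/HCl pH8, 100 mM KCl, 0.05% low protease BSA, 2.5% glycerol, 0.01% Tween-20. ClpP 10 microg/mL final; 20 min RT; delta FRET normalized to ADEP and DMSO controls.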
TRPML1 inh: inhibitors of human TRPML1 channel; Q9GZU1; TRPML1-inducible cells, Ca2+ dye fluorescence, FDSS; hits give low values; inhibition of EC80 agonist-evoked calcium signal; activity change, negative = inhibition, % (concentration not given with the values); actives 0.02% (n = 390,000); in the data active means activity change below about -50%; inconclusive means about -30% to -50%; inactive means above about -30%;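 also: stimulus is agonist 54-4 at its EC80 concentration; % is scaled to controls: 0 for no effect and ±100 for the full control effect; compound concentration not given in the record; the text of the record puts the active cut at -80%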
Target sequence (Q9GZU1 whole entry, looked up): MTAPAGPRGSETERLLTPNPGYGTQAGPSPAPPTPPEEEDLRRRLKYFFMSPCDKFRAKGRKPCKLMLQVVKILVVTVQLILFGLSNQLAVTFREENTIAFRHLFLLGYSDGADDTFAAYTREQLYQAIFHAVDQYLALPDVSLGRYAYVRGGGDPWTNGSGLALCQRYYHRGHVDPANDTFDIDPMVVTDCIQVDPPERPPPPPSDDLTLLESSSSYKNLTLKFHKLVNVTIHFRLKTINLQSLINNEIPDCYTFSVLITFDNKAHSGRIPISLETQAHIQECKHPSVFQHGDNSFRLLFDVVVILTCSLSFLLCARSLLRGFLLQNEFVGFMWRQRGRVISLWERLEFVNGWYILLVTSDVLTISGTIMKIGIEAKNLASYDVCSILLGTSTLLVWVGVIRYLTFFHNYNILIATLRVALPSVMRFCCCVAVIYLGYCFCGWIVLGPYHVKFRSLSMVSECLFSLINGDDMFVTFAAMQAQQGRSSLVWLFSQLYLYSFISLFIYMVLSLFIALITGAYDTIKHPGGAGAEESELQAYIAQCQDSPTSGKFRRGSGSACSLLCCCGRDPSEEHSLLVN
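Calcium fluorescence in TRPML1-DL cells induced overnight with Tet: a 110 s read after compound pin addition, then a 110 s antagonist read after challenge with 54-4 at 4 uM final (EC80).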
Sfp inh: blocks B. subtilis Sfp PPTase activity. Biochemical Sfp PPTase activity, qHTS. Potency, µM, for the others: max response, negative = inhibition, hits mostly inhibitors. Q9F4F7. actives 3.5% (n = 310,000); active = well fitted inhibition curve with a large enough effect; inconclusive = small, poorly fitted or top-dose-only effect, or another doubt; inactive = no such curve, though single readings can be large or run the other way;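 also: the enzyme is Sfp with the accession as filed and its product quenches rhodamine fluorescence; potency is read from the fitted curve at half-maximal effect; 0% = enzyme reaction without inhibitor and -100% = no enzyme wells; top concentration of the series not given in the record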
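After 15 min at room temperature with compound, 15 nM Sfp received 5 uM rhodamine-CoA plus 12.5 uM BHQ-2-ybbR (50 mM Hepes pH 7.6, 10 mM MgCl2). Rate came from the fluorescence difference over 30 min, ex 525/em 598 nm.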
gsp ag: activates gsp, the McCune-Albright syndrome mutation | gsp mutant cells, cAMP HTRF, 30 min; control for the full effect not named in the record | actives 0.13% (n = 340,000) | Potency, µM (titrated, usually from 76.9 µM), inactives show top-dose activation (cAMP increase), most hits filed as activators | AID 624287; active = well fitted activation curve with a large enough effect; inconclusive = small, poorly fitted or top-dose-only effect, or another doubt; inactive = no such curve, though single readings can be large or run the other way; cell line not stated here;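 also: phosphodiesterase inhibitor Ro 20-1724 added with compounds to block cAMP breakdown; potency is read from the fitted curve at half-maximal effect; nearly all actives have a fitted effect of over 60% in size; about a fifth of the inactives were tested at one dose only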
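Cells in DMEM/10% FBS with G418 were pretreated with compounds in DMSO plus […] (300 uM stock) for 30 min at 37C. cAMP was measured by HTRF (cAMP-d2 plus anti-cAMP antibody-K) after 30 min at room temperature.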
TRPV1 potentiator: enhances activation of the human vanilloid receptor TRPV1; actives 0.02% (n = 320,000); Q8NER1; potentiation, % at 8.33 µM; TRPV1-expressing cells, Fluo-8 calcium influx, capsaicin EC20 potentiation; host cell line not named in the record; control for the full effect not named in the record; active means potentiation above 80%; inconclusive means 30% to 80%; inactive means below 30%; also: 0% is about no effect
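TRPV1-expressing cells were cultured overnight at 35.5C and loaded with Fluo-8 calcium dye for 40 to 90 min at room temperature. After a 10 s baseline, compound was added and calcium influx was read kinetically for 3 min (ex 480/em 520 nm).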
Menin MLL FP FL: displaces fluorescein MLL peptide from human menin; FP activity change, % at 61.4 µM; Fluorescence polarization, fluorescein-MLL peptide displacement from menin; 290,000 tested, under 10 active; AID 1766; inconclusive = falling polarisation curve, or a change in total fluorescence; inactive = total fluorescence flat and polarisation flat or rising; no compound was filed as active; the % refers to the polarisation; negative = inhibition;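 also: % of control where 0% means no effect; inhibitors lower the polarisation; unlabelled MLL peptide was the positive control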
* = called active by the depositor; ? = inconclusive; . = not tested or not shown; & = joins results of further samples; [ ] = another dose, or the depositor's remark.

SMILES | gsp antag | ClpP mod | TRPML1 inh | Sfp inh | gsp ag | TRPV1 potentiator | Menin MLL FP FL
CCCOc1ccc(C2C(C(=O)c3ccc(C)o3)=C(O)C(=O)N2Cc2ccco2)cc1 (stereo not given) | -6% | 1.1% | 36 | ? | ? | 11 | .
Cc1cccc(CNC(=O)CCn2ccc3cc(S(=O)(=O)N4CCCC4)ccc32)c1 | -14% | 0.3%&-2.5% | -2&2 | 11% | -12% | -6 | .
O=C(Nc1ccc(F)cc1)c1cccnc1 | 4% | -2.6% | 3 | 1% | -33%[inhibitor] | -2 | -1.1
CNc1nc(NC)c2cn[nH]c2n1 | 4% | -20% | -2 | . | -6% | . | .
Cc1ccc(-c2[nH]ncc2C(=O)c2ccc(Br)cc2)c(O)c1 | -1% | . | -6 | -1% | 9%[15.4 µM] | -11 | 2.6
CN(C)Cc1ccccc1Cc1ccccc1 | 10% | -0.3% | 10 | 22% | -13% | 0 | 23
N#Cc1c(-c2ccccc2Cl)c2c([nH]c1=O)-c1ccccc1OC2 | 4% | . | -4 | 4% | -25%[15.4 µM] | 17 | 0.8
C[C@@H]1O[C@@H](O[C@H]2[C@H](Oc3cc(O)c4c(c3)O[C@H](c3ccc(O)cc3)CC4=O)O[C@H](CO)[C@@H](O)[C@@H]2O)[C@H](O)[C@H](O)[C@H]1O | 0% | 2.4% | 6 | -4%&5% | . | 6 | -14&-2.0
C[C@@H]1CN([C@H](C)CO)C(=O)CCCn2nncc2CO[C@H]1CN(C)S(=O)(=O)c1cccc(F)c1 | . | 0.1% | -5 | . | -16% | . | .
COc1ccc(C(=O)NNC(=O)C2=NN(c3ccccc3)C(=O)CC2)cc1 | 7% | -0.3% | -5 | -8% | -31%[inhibitor] | 30 | -3.7
O=C(CCc1ccccc1)NNC(=O)c1cc(Cl)ccc1O | -6% | . | 44 | 30%[activator] | ? | ? | -3.5
CC(C)COC(=O)CCn1[nH]c(=O)c2ccccc2c1=O | 3% | -3.2% | 15 | -4% | -14% | -5 | 0.3
CC1(C)CC(=O)C=C(Nc2cccc(O)c2)C1 | 0% | 0.2% | -9 | 5% | -15% | -8 | 4.4
COc1ccc(Cl)cc1NC(=O)C/C(C)=N/NC(=O)CCc1ccccc1 | . | . | 4 | 19% | 3%[15.4 µM] | 3 | 5.8
Cc1nn(CC(C)C)c(Cl)c1C(=O)NCC(C)(C)N1CCOCC1 | . | -0.2% | 0 | . | -67%[inhibitor] | . | .
Nn1cc(-c2ccccc2)nc1SCC(=O)NCCN1C(=O)CSC1=O | -2% | -3.9% | 5 | 11% | 18% | ? | 1.1
Cc1onc(-c2c(Cl)cccc2Cl)c1C(=O)N1C(C)CCCC1C (stereo not given) | 2% | -1.8% | 2 | . | 0% | . | .
CCOc1ccc(CCNC(=O)CN2C(=O)c3cccnc3Oc3ccc(C)cc32)cc1OCC | -14% | 1.1%&0.2% | 4&0 | 7% | -35%[inhibitor] | -18 | 1.6
Cn1ccs/c1=N\C(=O)Nc1ccccc1 | 1% | -1.1% | 4 | 6% | 15% | -22 | 0.0
COc1c(C(C)C)cc(NC(C)=O)cc1C(C)C | -6% | 1.4% | 3 | 25% | ? | -5 | -0.1
O=C1C(Cc2ccccc2)SC(=Nc2ccccc2)N1c1ccccc1 (stereo not given) | 10% | 0.8% | -12 | 3% | 26% | 4 | 0.1
Cc1nc2sccn2c(=O)c1S(=O)(=O)NC(C)c1ccccc1 (stereo not given) | -1% | 4.1% | 2 | -4% | ? | -19 | 0.4
O=C(CCS(=O)(=O)c1cc(Br)cc2c1N(C(=O)C1CC1)CC2)N1CCN(c2ccccn2)CC1 | -6% | -1.8% | 33 | -2% | -9% | 14 | -0.2
CCc1nnc(NS(=O)(=O)c2ccc(NC(=S)NC(=O)/C=C/c3ccc(F)cc3)cc2)s1 | -27% | -2.1% | -2 | 11% | 10%[15.4 µM] | ? | 1.1
CCCN1CC(=O)N2Cc3[nH]c4ccccc4c3C[C@H]2C1=O | 5% | 3.7% | -6 | 12% | 24% | 9 | -1.1
CCOc1ncccc1C(=O)N1CCN(Cc2ccc3c(c2)OCO3)CC1 | 3% | 1.9% | -16 | 14% | 14% | 2 | 3.1
CN(CC(=O)Nc1ccc(F)cc1)C(=O)COC(=O)c1cc(S(=O)(=O)N(C)C)ccc1N1CCCC1 | -19% | 0.7% | -8 | . | 1%[15.4 µM] | 4 | .
CC12C=CC3(CN(Cc4ccccc4)C(=O)C3C1C(=O)NC1CC1)O2 (stereo not given) | 5% | -0.3% | 6 | 4% | 10% | 8 | -0.4
COc1ccc(OC)c(NC(=O)CSc2nnc(Cc3cccn3C)n2CCc2ccccc2)c1 | -11% | -1.0% | -6 | -11% | 23% | -7 | 8.9
CC(C)(C)OC(=O)NCc1ccc(CNC(=O)c2nc[nH]c2C(=O)N2CCc3ccccc3C2)cc1 | -18% | -0.7% | 22 | . | . | 19 | .
CC1(C)Cc2cccc(OCC(=O)NCc3ccccc3)c2O1 | 4% | 0.2% | -5 | 7% | 14% | -26 | .
COC(=O)c1nn(-c2ccc(OC)cc2)c(=O)cc1Sc1ccc(C)cc1 | -12% | . | 24 | 4% | -27% | -9 | 5.2
Cc1[nH]c(=S)[nH]c(=O)c1Cc1ccccc1 | 0% | -0.2% | 2 | -1% | 20% | -6 | 2.4
COCCN(C(=O)COC(=O)/C=C/c1ccc(C)o1)c1c(N)n(Cc2ccccc2)c(=O)[nH]c1=O | 0% | -2.0% | -4 | -7% | -12%[15.4 µM] | ? | .
COc1cccc(C#Cc2cnc3c(c2)C(=O)N([C@@H](C)CO)C[C@H](C)[C@H](CN(C)C(=O)C2CCC2)O3)c1 | . | ? | -4 | . | ? | . | .
CC(C)NC(=O)N(C)C[C@H]1Oc2ccc(NC(=O)C3CCCCC3)cc2C(=O)N([C@H](C)CO)C[C@@H]1C | 17% | 0.1% | 1 | . | 6% | . | .
O=C(Nc1cccc(S(=O)(=O)N2CCOCC2)c1)c1ccc(N2CCOCC2)c([N+](=O)[O-])c1 | -9% | -2.8% | -10 | 1% | -10% | -10 | 3.4
CCC(C)NC(=O)CCn1c(-c2ccc(F)cc2)cc(C(C)=O)c1C (stereo not given) | 7% | 0.4% | -1 | 16% | -1% | -28 | -3.1
Cn1c(=O)[nH]c(=O)c2c1nc(SCC(=O)O)n2CCCc1ccccc1 | 4% | 2.0% | -12 | 6% | -3% | 6 | -1.0
O=C(Oc1ccc(C(=S)N2CCOCC2)cc1)c1ccccc1[N+](=O)[O-] | -9% | -0.8% | -15 | -14% | 0% | -16 | -3.0
NC(=O)CSc1ncnc2c1cnn2Cc1ccccc1 | -7% | -0.6% | 5 | 7% | 22% | 1 | -0.2
COC(=O)c1cc(=O)nc2sc(-c3ccc(F)cc3)nn12 | -4% | 28µM* | 0 | 22µM* | 3% | -1 | -1.2
CN(c1cccc(NS(=O)(=O)c2cccs2)c1)S(C)(=O)=O | 8% | -6.4% | -3 | 16% | -7% | ? | 0.7
COc1ccc(NC(=O)COC(=O)/C=C/c2ccccc2[N+](=O)[O-])cc1OC | -4% | 1.1% | 1 | 0% | -16% | -10 | 5.7
CC(C)NC(=O)C1CCN(Cc2cnn(-c3ccccc3)c2-n2cccc2)CC1 | -1% | 0.2% | 7 | 18% | 0% | 14 | 1.8
CN(C)CCNC(=O)c1cccc2ccc(-c3ccc(-c4ccccc4)cc3)nc12 | -4% | ? | -20 | . | 11% | . | .
CC(C)OC(=O)CC1C(=O)NCCN1C(=O)COc1ccc(C(C)(C)C)cc1 (stereo not given) | 0% | . | 4 | 5% | ? | 3 | 2.2
N#Cc1c(Cl)nc(N/N=C/c2ccccc2)c(Cl)c1Cl | 14% | -1.6% | -13 | ? | -20% | -10 | ?

Limited to TRPV1 potentiator, gsp ag and TRPML1 inh, for some of the entries so far:
mol | TRPV1 potentiator | gsp ag | TRPML1 inh
CNc1nc(NC)c2cn[nH]c2n1 | . | -6% | -2
Cc1ccc(-c2[nH]ncc2C(=O)c2ccc(Br)cc2)c(O)c1 | -11 | 9%[15.4 µM] | -6

Remaining list, next part
SMILES | gsp antag | ClpP mod | TRPML1 inh | Sfp inh | gsp ag | TRPV1 potentiator | Menin MLL FP FL
COc1cc(C2NC(=O)NC(C)=C2C(=O)OCc2ccc(C)cc2)cc(OC)c1O (stereo not given) | -6% | 0.5% | -1 | -7% | 5% | 2 | 2.0
CCCC(=O)Nc1ccc2c(c1)nc1n2CCN(C2CCCCC2)C1 | -4% | -2.4% | 4 | 25% | 14%[15.4 µM] | -11 | 1.5
CCCCC1CCC(C(=O)N(CCOC)c2c(N)n(CCCC)c(=O)[nH]c2=O)CC1 (stereo not given) | 5% | -0.6% | 10 | . | 1% | 0 | .
O=C(O)CCc1nnc(SCC(=O)Nc2ccc(Cl)c(C(F)(F)F)c2)[nH]c1=O | -4% | . | 18 | 36%[activator] | 13%[15.4 µM] | 5 | -0.5
CCOC(=O)C(C)Oc1ccc(NC(=O)C(Cl)Cl)cc1 (stereo not given) | -2% | . | 4 | 7% | -8%[15.4 µM] | 4 | 1.0
COc1ccc(OC)c(/C=C/C(=O)NC2=NCCS2)c1 | 0% | -0.9% | 4 | 13% | -3%[15.4 µM] | 11 | -1.7
Cc1c(C(=O)N2CCCC2)c(S(=O)(=O)Nc2cccc(Br)c2)c(C)n1C | 12% | -0.9% | -7 | 8% | 14% | 1 | .
CC(=O)c1c(C)[nH]c(C(=O)OCC(=O)c2ccc(C)s2)c1C | ? | -2.3% | -7 | . | -17% | 2 | .
CCOC(=O)c1cnc(-n2[nH]c(C)c(Cc3ccccc3)c2=O)[nH]c1=O | -6% | . | 18 | 2% | 3%[15.4 µM] | 2 | 1.3
O=c1cc(O)c2sc3nc(C(F)(F)F)c4c(c3c2[nH]1)CCCCC4 | -1% | . | -13 | -24% | 1%[15.4 µM] | 25 | 11
COc1ccc(S(=O)(=O)N2CCOCC2)cc1NC(=O)CNC(=O)c1cccs1 | -6% | 0.0% | -12 | . | -16% | -12 | .
O=C(CSc1nc2ccccc2s1)Nc1ncccn1 | 7% | -0.5% | 0 | -8% | 18% | 17 | 18
O=[N+]([O-])c1ccc(C2=Nc3cc(Cl)ccc3OC2)cc1 | 0% | . | 40 | -15% | -5% | -6 | -3.0
